From PubChem
NPYLR7 agonist: activates Aedes aegypti NPYLR7 receptor; HEK293T NPYLR7/Galpha15, GCaMP6s calcium fluorescence; activation, % at 10 µM; hit rate 0.15% among 270,000; in the data active = activation above about 40%;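 also: 0% = vehicle and 100% = reference agonist at the receptor; some compounds past the cut are filed as inactive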
NPYLR7 agonist max-min: second read-out of NPYLR7 agonist, no call of its own (marks repeat the call); activation, %; measured here: Max-Min RFU normalised activation; some inactives read as strong as hits;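 span of the calcium signal over five minutes; 0% = vehicle and 100% = native peptide agonist; compound fluorescence can raise it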
The depositor's hits bear a star; & = joins results of further samples. An excerpt; rates above refer to the full screens.

SMILES	NPYLR7 agonist	NPYLR7 agonist max-min
CC(Oc1ccccc1)C(=O)OCC(=O)NC1CCCC1 (stereo unspecified)	5.7	2.2
Cc1ccc(C(=O)NCc2cccnc2N(C)C2CCCCC2)cn1	5.7	3.4
CCOc1ccc(NC(=O)c2ccc(-c3ccc4c(c3)C(O)CC3(CCN(C)CC3)O4)cc2)cc1 (stereo unspecified)	-2.9	7.5
Cc1ccc(C2NC(=O)N(C)C3=C2C(=O)N(Cc2cccc(C(F)(F)F)c2)C3)c(C)c1 (stereo unspecified)	3.7	3.4
Cc1nccc(-c2cccc(NC(=O)c3ccc(NC(C)C)nc3)c2)n1	-6.0	-12.0
O=C(CN1C2=NCCN2c2ccccc21)c1cccs1	2.7	-1.0
COc1ccc(N(C(=O)Cc2ccccc2)S(=O)(=O)c2ccc(Cl)cc2)cc1	4.6	5.5
O=C(NCCSc1ccc(Cl)cc1)c1ccc2c(c1)OCO2	9.9	-1.2
Nc1nc(SCc2nc3sc4c(c3c(=O)[nH]2)CCCC4)n[nH]1	-1.9	-1.9
COc1ccc(C2=NOC(CN(Cc3ccc(F)cc3F)CC(O)COCc3ccccc3)C2)cc1 (stereo unspecified)	-2.0	5.2
CN=c1scc(-c2ccc(OC)cc2)n1N=Cc1cc(Br)c(O)c(OC)c1	8.9	6.8
Cc1ccc(CSc2ccc3nnc(-c4ccccn4)n3n2)cc1	-1.0	-3.0
COC(=O)c1cc(=O)nc2sc(-c3cccs3)nn12	6.5	5.7
COc1cc(C)c(CS(=O)(=O)CC(=O)N2CCCCC2)cc1OC	8.0	7.6
O=C(NCCN1CCOCC1)c1cccc(S(=O)(=O)Nc2ccccc2F)c1	6.6	3.1
Brc1ccccc1-c1nc(-c2ccncc2)no1	-5.3	-11.3
Cc1cc(CSc2ncccc2C(=O)NC2CCCCCCC2)no1	6.8	5.7
CCOC(=O)CC1(NC(=O)C(C)Oc2ccc3c(c2)OCO3)CCCCC1 (stereo unspecified)	-8.4	-12.1
Cc1ccc(S(=O)(=O)Nc2cc(F)ccc2N2CCCCC2)cc1	2.5	0.2
C=CCn1c(N)c(C(=O)OC)sc1=S	-0.1	2.9
CCOC(=O)c1ccc(Nc2nc3nonc3nc2NC(C)C)cc1	-4.9	-9.4
CC(=O)Cn1cnc2c(nnn2-c2cccc(F)c2)c1=O	-0.2	-1.6
CN(Cc1ccc(Cl)cc1)Cn1nc(-c2cccnc2)n(C)c1=S	7.9	3.1
Cc1nn(CC(C)C)c(C)c1CC(=O)NC1CCS(=O)(=O)C1 (stereo unspecified)	0.1	-4.0
COc1cccc(NC(=O)C2(C)CCN2C(=O)CCC2CCCC2)c1 (stereo unspecified)	0.5	-2.0
COCCn1c(SCC(=O)Nc2cccc3ccccc23)nc2c(c1=O)SC(C)C2 (stereo unspecified)	6.7	4.3
O=C(NC1CC1)C(Oc1ccc(Br)cc1Br)c1ccc(F)cc1 (stereo unspecified)	-0.6	-2.2
CCOc1c(Cl)cccc1NC(=O)N(C)Cc1nc(C)cs1	7.3&6.1	5.6&1.2
CCOC(=O)c1nc(NC(=O)C2C(C(=O)O)C2(C)C)sc1C (stereo unspecified)	-1.1	38.0
Cc1cc(N2C(=O)CSC2c2cccnc2)ccc1Br (stereo unspecified)	-6.3	-13.3
CN(C)C(=O)CN1CCN(c2nc(C(=O)Nc3ccccc3)cs2)C1=O	7.7	5.5
COc1ccc(CNC(=O)c2ccc(-c3cc(-c4cccc(C(F)(F)F)c4)n[nH]3)cc2)cc1OC	19.6	12.9
Nc1nncn1C(=O)c1ccc(Br)o1	1.0	0.2
C/C(=N\NC(=O)C1CCCO1)c1cc2cc(Cl)ccc2o1 (stereo unspecified)	-0.7	-2.1
O=C(NCC1COCCO1)c1cn(-c2ccccc2)nc1-c1cccs1 (stereo unspecified)	1.5	383.0
CC(=O)N1CCCC(C(=O)NCC(C2CC2)N(C)C)C1 (stereo unspecified)	5.2	2.0
Cc1cccc(N2CCN(CCCSCC#N)C(C)C2)n1 (stereo unspecified)	5.7	3.2
CC(C)N(CC(=O)N(CCc1c[nH]c2ccccc12)Cc1ccc(C(F)(F)F)cc1)C(=O)Nc1cc(C(F)(F)F)cc(C(F)(F)F)c1	-7.8	-9.2
CCCNC(=O)N(Cc1nccn1Cc1ccc(C(F)(F)F)cc1)CC1CC1	7.2	11.9
Clc1cc(CSc2nnnn2C2CCCC2)cc2c1OCCCO2	0.1	2.4
COc1ccc(S(=O)(=O)N(C)C)cc1NS(=O)(=O)c1ccc(Cl)c(Cl)c1	-1.8	-2.3
CCN(CC)S(=O)(=O)c1ccc(N(C)C)c(NS(=O)(=O)c2c(C)cc(C)cc2C)c1	2.5	2.1
O=C(c1c[nH]c(=S)n1-c1ccc(F)cc1)N1CCN(S(=O)(=O)c2ccccc2)CC1	-1.5	3.7
O=C1C=CC(=O)N1c1ccc(OC(F)(F)F)cc1	6.8	16.7
COc1ccc(C(=O)N(Cc2cccc(Cl)c2)Cc2nc3cc(Cl)ccc3o2)c(OC)c1	0.1	-7.5
O=C1CC(c2cccc3cnccc23)c2ccc(N3CCOC3=O)cc2N1 (stereo unspecified)	21.9	2.1
O=S(=O)(c1ccccc1)N1CCN(Cc2ncc(-c3ccc(F)cc3)o2)CC1	3.6	2.9
CN1C(=O)C2(SCC(=O)N2c2ccc(Br)cc2)c2ccccc21 (stereo unspecified)	3.2	-0.2
CC(=O)N1CCCCNC1=S	2.0	0.9
CCOC(=O)c1cnn(-c2ccc(C(=O)NC3(C#N)CCC3)cc2)c1C	-0.4	-0.9
COC(=O)c1c(NC(=O)CSc2nnc3sc4ccccc4n23)sc2c1CCC(C)C2 (stereo unspecified)	-0.8	-2.8
CNC(=S)N(CCO)c1ccc(OC)nc1	32.4	22.7
Cc1c(NCc2ccccn2)cccc1C(=O)NCCN1CCNC1=O	1.4	4.3
N#CCc1ccc(NC(=O)N2CCN(C(c3ccc(F)cc3)c3ccc(F)cc3)CC2)cc1	19.7	19.0
CC1C(=O)N(c2ccc(Oc3ccccc3)cc2)CCN1C(=O)c1cccs1 (stereo unspecified)	3.7	8.2
CCn1nnc2c(Nc3cccc(Cl)c3C)ncnc21	5.4	12.0
OC1(c2ccc(Cl)cc2)C[N+](CCc2ccccc2)=C2SCCCN21 (stereo unspecified)	-1.9	-1.4
CNC(=O)C1(NC(=O)c2ccc(-c3cccs3)nc2C)CCCCC1	2.6	-3.0
CN(Cc1cccc(F)c1)C(=O)CCC1Cc2ccccc2NC1=O (stereo unspecified)	1.3	-1.9
O=C(c1ccc(Cl)cn1)N1C[C@H]2C[C@H](C1)[C@@H]1CCCC(=O)N1C2	-1.0	-12.7

(next part)
SMILES	NPYLR7 agonist	NPYLR7 agonist max-min
Cc1ccc(-c2cc(COC(=O)c3cc4ccccc4o3)no2)cc1	-0.1	-0.5
CC(C)c1nc(Sc2nc3ccccc3s2)n[nH]1	4.8	4.7
CCC(C(=O)N1CCC(C(=O)NCCNC(=O)c2ccccc2)CC1)c1ccccc1 (stereo unspecified)	1.4	16.0
COc1ccccc1-n1c(SCc2ccc(C(=O)N3CCN(c4ccccc4F)CC3)cc2)nnc1-c1ccc([N+](=O)[O-])cc1	19.4	22.7
COc1ccc(S(=O)(=O)N2CCN(c3cc(S(=O)(=O)NCCc4ccc(F)cc4)ccc3OC)CC2)cc1OC	5.9	2.9
O=C(CCc1ccccc1)Nc1ccc(-c2cccc(-c3ccc4c(c3)OCCO4)n2)cc1	-3.1	-2.0
Cc1ccc(Cc2nnc(SCC(=O)Nc3ccccc3C)[nH]c2=O)cc1	2.2	0.7
CCOC(=O)CNC(=O)NC(C)c1nnc(SCc2ccc(F)cc2)n1-c1cc(Cl)ccc1C (stereo unspecified)	14.2	12.8
CC(C)Oc1cc(N2CCCN(C(=O)C3CCCO3)CC2)nc(N)n1 (stereo unspecified)	-0.9	-1.5
COCC(=O)N1CCN(c2nccn2C)CC1	2.8	8.4
Cn1c(=O)c2c(ncn2CC(=O)NC2CCCC2)n(C)c1=O	5.0&8.9	10.0&9.0
O=C(CCC1CCN(Cc2cccc3c2OCO3)CC1)Nc1ccccc1Cl	17.5	4.8
Cc1cc(C)c2nc(N(CCCn3ccnc3)C(=O)c3ccco3)sc2c1	-11.4	-15.5
COc1cc2c(cc1OC)C1CN(C(=O)c3c(OC)cccc3OC)CC(=O)N1CC2 (stereo unspecified)	-0.8	8.9
CC(C)(O)C#Cc1ccc(C(=O)N2CC[C@@H](c3ccc(F)cc3)[C@H](O)C2)o1	3.9	5.6
O=C(Nc1c[nH]c2ccccc12)N(CCO)Cc1ccccc1	-4.1	-5.4
Cc1nc(CN2C(=O)NC(C)(c3ccc(OC(F)F)cc3)C2=O)oc1C (stereo unspecified)	5.0	2.8
COc1ccc2sc(N(Cc3cccnc3)C(=O)/C=C/c3cccs3)nc2c1	-2.4	4.3
COc1ccc(CNC(=O)c2ccccc2NS(=O)(=O)c2ccc(OC(F)(F)F)cc2)cc1	13.7	7.6
N#Cc1c(N)nc(SCC(=O)c2ccccc2)c(C#N)c1-c1ccc(O)cc1	-4.5	-6.0
O=C(c1ccc(Br)cc1)N1N=C2CCCCCC2C1(O)C(F)(F)F (stereo unspecified)	3.3	1.4
Cc1cc(=O)[nH]c(N=C(N)Nc2cccc([N+](=O)[O-])c2)n1	-9.9	-6.5
CC(=NNc1ncnc2sc(C)c(C)c12)c1ccc(Cl)s1	-16.4	-24.3
C=CCn1c(=O)c2c(nc3n2CCCN3c2ccc(Br)cc2)n(C)c1=O	9.8	3.1
NC(=O)c1ccc(COC(=O)Cc2ccc3c(c2)CCCC3)cc1	0.7	-0.3
O=C(c1cccc(Br)c1)N1CCCC(OCc2ccc(OC(F)(F)F)cc2)C1 (stereo unspecified)	-3.0	2.2
CCS(=O)(=O)c1nc(S(=O)(=O)c2ccc(C)cc2)c(N2CCCC2)s1	10.4	8.0
O=C(c1scc2c1CCCC2)N1CCCCC1	-3.5	-5.4
Cc1ccc(C)c(C(=O)N2CCN(C(=O)C(C)C)CC2)c1	1.4	0.9
CC(C)CCN(CCC(C)C)Cc1ccc(C(=O)N2C3CCC2CC(Oc2ccc(F)cc2F)C3)cc1 (stereo unspecified)	7.0	-3.6

Fetched by compound from the entries so far:
SMILES	NPYLR7 agonist	NPYLR7 agonist max-min
COc1cc2c(cc1OC)C1CN(C(=O)c3c(OC)cccc3OC)CC(=O)N1CC2 (stereo unspecified)	-0.8	8.9
COc1ccccc1-n1c(SCc2ccc(C(=O)N3CCN(c4ccccc4F)CC3)cc2)nnc1-c1ccc([N+](=O)[O-])cc1	19.4	22.7
Cc1ccc(C2NC(=O)N(C)C3=C2C(=O)N(Cc2cccc(C(F)(F)F)c2)C3)c(C)c1 (stereo unspecified)	3.7	3.4
CCOc1ccc(NC(=O)c2ccc(-c3ccc4c(c3)C(O)CC3(CCN(C)CC3)O4)cc2)cc1 (stereo unspecified)	-2.9	7.5
CC1C(=O)N(c2ccc(Oc3ccccc3)cc2)CCN1C(=O)c1cccs1 (stereo unspecified)	3.7	8.2

The results go on.
SMILES	NPYLR7 agonist	NPYLR7 agonist max-min
Cc1nccn1CCCN1CCOc2c(O)cc(-c3cccc(Cl)c3)cc2C1	7.6	5.3
Cc1ccc(CNC(=O)Cn2c(-c3ccco3)nc(-c3ccccc3)c2-c2ccccc2)o1	19.7	10.5
Cc1nc2ccccn2c1Sc1ccc(Cl)cc1	-7.2	-8.3
CCOC(=O)c1cc(-c2ccc(N3CCN(C(=O)c4ccco4)CC3)cc2)n(-c2ccc(F)cc2)n1	23.4	13.0
COc1cccc(CN2CC(C(=O)NCCc3nc(-c4ccccc4)no3)CCC2=O)c1 (stereo unspecified)	16.4	3.7
CCn1cc(C(CC(=O)O)c2ccc(F)cc2)c2ccccc21 (stereo unspecified)	24.0	26.9
Fc1ccc(Nc2nc(Cc3ccc(Cl)cc3)ns2)cc1	-3.1	-2.8
CC(NC(=O)N1CCC[C@@H]1CO)c1c(F)cccc1Cl (stereo partly specified)	-6.3	-10.5
c1ccc2[nH]c(Cc3nc4ccccc4[nH]3)nc2c1	3.8	1.9
Cc1nc(C2(NC(=O)C3CCCN(C(=O)c4ccc(F)cc4)C3)CCCCC2)no1 (stereo unspecified)	-1.3	-4.4
COc1ccc2c(c1OC)C(=O)N(c1ccc(NC(C)=O)cc1)C2=O	3.9	7.4
Cc1cccc(CSc2nc3c(cnn3CCO)c(=O)[nH]2)c1	4.7	3.8
O=S(=O)(NCCN1CCCCCC1)c1cc(Cl)sc1Cl	-5.3	-10.3
CCC(C)(C)c1ccc(OCC(=O)O)c(C(C)(C)CC)c1	5.8	4.2
Cc1cccc(C)c1NC(=O)C1(NC(=O)CN2C(=O)c3ccccc3C2=O)CCC(C(C)(C)C)CC1 (stereo unspecified)	4.1	2.9

Compound profiles, as listed above.
Profile of O=C1CC(c2cccc3cnccc23)c2ccc(N3CCOC3=O)cc2N1 (stereo unspecified) → NPYLR7 agonist: 21.9; NPYLR7 agonist max-min: 2.1
Profile of O=C(CN1C2=NCCN2c2ccccc21)c1cccs1 → NPYLR7 agonist: 2.7; NPYLR7 agonist max-min: -1.0
Profile of CNC(=S)N(CCO)c1ccc(OC)nc1 → NPYLR7 agonist: 32.4; NPYLR7 agonist max-min: 22.7

(listing goes on)
SMILES	NPYLR7 agonist	NPYLR7 agonist max-min
Cc1oc(=O)oc1CN1CCN(c2cc3c(cc2F)c(=O)c(C(=O)O)c2n3C(C)C2)CC1 (stereo unspecified)	6.0	11.0
CCOCCCn1c(SCc2cccc(OC)c2OC)nc2cc(S(=O)(=O)N3CCCC(C)C3)ccc21 (stereo unspecified)	25.4	19.3
CNC(=O)[C@@H]1C[C@H]2CN(CCOC)C(=O)c3cccc(c32)N1C(=O)c1ccno1	1.3	12.5
CCSc1nc(-c2ccc(Br)cc2)ccc1C#N	-2.5	-6.3
